Source: PubChem BioAssay (National Center for Advancing Translational Sciences (NCATS))
TsaE inh: displaces an ADP probe from E. coli YjeE (TsaE). P0AF67. purified YjeE, fluorescence polarisation of a bound ADP probe. Potency, µM. 0.05% of 71,000 active; active = well fitted falling curve; inconclusive = weaker or top-dose-only fall, or a rising curve; inactive = flat or poorly fitted curve;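 further: top concentration of the series not given in the record; excess ADP was the control for the full effect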
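Fluorescence polarization of a BODIPY Texas Red–ADP probe (2 uM) bound to purified YjeE (10 uM) was read after 15 min room-temperature incubation with compounds. Loss of polarization marks inhibitors; ADP serves as titrated control.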
Bst PK mod: modulators of Bacillus stearothermophilus pyruvate kinase; partly purified Bacillus stearothermophilus pyruvate kinase, luminescence ATP production; ribose 5-phosphate activator present at AC10; Potency, µM; 1.2% of 51,000 active; AID 361; in the data active means potency below about 11 µM; inconclusive means mostly about 12 µM to 25 µM; inactive means weaker than that;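 the screen sought inhibitors and activators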;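 further: potency means the concentration at half of the fitted maximal effect; scaled between full activation by ribose 5 phosphate and full inhibition by luteolin; about four in five hits inhibit and the cells do not say which; series up to 57 µM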
Active calls of the source: *; i = inactive; ? = inconclusive; nt = no result given. An excerpt; count on the stated rates, not on these rows.

smiles	TsaE inh	Bst PK mod
Oc1ccc2c3c1O[C@H]1c4[nH]c5ccccc5c4C[C@]4(O)[C@H](C2)N(CC2CC2)CC[C@@]314	i	nt
O=C1C2CCCN2C(c2cccc(Cl)c2)N1c1ccccn1 (stereo not drawn)	i	>57
O=C(Cn1ncc2ccsc2c1=O)N1CCC2(CC1)OCCO2	i	>57
N#C/C(N)=C(/N)C#N	i	nt
c1cc(CN2CCC3(CCNCC3)CC2)ccn1	i	nt
CC(C)CCC1(CCN)C(=O)NC(=O)NC1=O	i	nt
CCN=C=NCCCN(C)C	i	nt
O=C(O)CS(=O)(=O)C(c1ccccc1)c1ccccc1	i	nt
C(#CCN1CCOCC1)COCc1ccccc1	i	>57
CN(C)N=O	i	nt
CCOP(=O)(C#CC(C)(C)C)C(C)(O)c1ccccc1 (stereo not drawn)	i	>57
OCc1cnc[nH]1	i	nt
CC(N)Cc1c[nH]c2cc3c(cc12)OCCO3 (stereo not drawn)	i	>57
Cc1cccc(OC(=O)N2CCOCC2)c1	i	nt
N#Cc1ccc(CN2CC[C@@]3(CCCN(C(=O)Oc4ccccc4)C3)C2)cc1	i	nt

7 successive compounds already listed, quoted:
smiles	TsaE inh	Bst PK mod
C(#CCN1CCOCC1)COCc1ccccc1	i	>57
CN(C)N=O	i	nt
CCOP(=O)(C#CC(C)(C)C)C(C)(O)c1ccccc1 (stereo not drawn)	i	>57
OCc1cnc[nH]1	i	nt
CC(N)Cc1c[nH]c2cc3c(cc12)OCCO3 (stereo not drawn)	i	>57
Cc1cccc(OC(=O)N2CCOCC2)c1	i	nt
N#Cc1ccc(CN2CC[C@@]3(CCCN(C(=O)Oc4ccccc4)C3)C2)cc1	i	nt

(cont.)
smiles	TsaE inh	Bst PK mod
CC(=O)c1c(O)n(C)c(=S)n(-c2ccccc2)c1=O	i	>57
O=C(Cn1ncc2c3ccccc3n(Cc3ccc(F)cc3)c2c1=O)N1CCC2(CC1)OCCO2	i	>57
c1ccoc1	i	nt
CCCCC12CNCC(C)(CNC1)C2=O	i	>57
COc1ccccc1CN1CCN(C(=O)Cc2ccccc2)CC1	i	nt
Cc1ccc(O)cc1C	i	nt
CCCCn1c(C)c(C(=O)O)c2cc(OC)ccc21	i	>57
COC(=O)c1cncn1C(C)c1ccccc1 (stereo not drawn)	i	>57
O=C(O)CBr	i	nt
NC(=O)Nc1cccc(C(F)(F)F)c1	i	>57
c1cc2c(cc1[C@H]1OC[C@H]3[C@@H]1CO[C@H]3c1ccc3c(c1)OCO3)OCO2	i	nt
c1cc2n(c1)-c1c(ccc3c1OCO3)CNC2c1ccc2c(c1)OCO2 (stereo not drawn)	i	>57
O=c1cccc2n1CC1CC2CN(Cc2c(Cl)cccc2Cl)C1 (stereo not drawn)	i	nt
Fc1ccc(N2CCN(Cc3ccc4c(c3)OCO4)CC2)cc1	i	>57
COC(=O)CC1=C(C(=O)OC)C2(C(=O)Nc3c(C)cccc32)C(C#N)=C(N)O1 (stereo not drawn)	i	>57
ClC(Cl)(Cl)c1ccccc1	i	nt
c1ccc2c(c1)[nH]c1cnccc12	nt	i
CCC(=Nc1ccc(OC)cc1OC)c1c(O)n(C)c(=O)n(C)c1=O	i	>57
Nc1cc(Cl)ccc1Cl	i	nt
N[C@H](CCl)C(=O)O	i	nt
CCN1CCN(Cc2ccc(OC(F)(F)F)cc2)CC1	i	>57
CCCCn1c(O)c(C=NCCN2CCCCC2)c(=O)[nH]c1=O	nt	>26
O=S(=O)(c1ccc(Cl)cc1)c1ccc(Cl)cc1	i	nt
C=CCC1(CN2CCCCCC2=O)C(=O)NC(=O)NC1=O	nt	>26
Oc1cccc(Cl)c1Cl	i	nt
COC(=O)[C@H]1C(=O)[C@H](C(=O)OC)[C@@H]2CC[C@H]1N2C	i	nt
NCCSC(c1ccccc1)c1ccccc1	i	nt
CN(C)[C@@H]1C(=O)C(C(N)=O)=C(O)[C@]2(O)C(=O)C3=C(O)c4c(O)cccc4[C@@](C)(O)[C@@H]3C[C@@H]12	i	nt
CNc1ccc2oc(C[C@@H]3O[C@@]4(CC[C@H]3C)O[C@@H]([C@@H](C)C(=O)c3ccc[nH]3)[C@@H](C)C[C@H]4C)nc2c1C(=O)O	i	nt
O=C(Nc1ccccc1)N1CC[C@@]2(CCCN(C(=O)Oc3ccccc3)C2)C1	i	nt
COC1=CC(=O)O[C@@H](/C=C/c2ccccc2)C1	i	nt
N[C@@H](CCP(=O)(O)O)C(=O)O	i	nt
Cc1ccccc1CS(=O)(=O)Cc1ccc(C(=O)N2CCC3(CC2)OCCO3)o1	i	>57
C=C(C)c1ccccc1	i	nt
COC(=O)COc1cc(C)cc2oc(=O)c3c(c12)CCCC3	i	>57
Cc1cc2c(s1)NC(=O)CN=C2c1cccs1	i	>57
CCc1ccccc1NC(=O)CSc1nnc([C@@H](N)Cc2c[nH]c3ccccc23)o1	i	>57
c1ccc(C2CC3CC(c4ccco4)N2O3)cc1 (stereo not drawn)	i	nt
Cc1ccc(S(=O)(=O)N2CN3CCN(C3)C2)cc1	i	>57
c1cc(C2N3CCCN2CC3)ccn1 (stereo not drawn)	i	nt
CC[C@H](C)C(=O)O[C@@H]1[C@H](O)[C@@H]2[C@H](CN3C[C@@H](C)CC[C@@H]3[C@@]2(C)O)[C@@H]2C[C@@]34O[C@@]5(O)[C@@H](OC(=O)[C@](C)(O)CC)CC[C@@]3(C)[C@H]5[C@H](OC(C)=O)[C@@H](OC(C)=O)[C@H]4[C@]12O	i	nt
COc1cccc2c1C(=O)c1c(O)c3c(c(O)c1C2=O)C[C@](O)(/C(C)=N\O)C[C@@H]3O[C@H]1C[C@H](N)[C@@H](O)[C@H](C)O1	i	nt
Oc1ccc(Cl)c(Cl)c1Cl	i	nt
CC1=CC(=O)C2=C(C)C[C@H](O)[C@@H]3[C@@H](OC(=O)[C@H]3C)[C@H]12	i	nt
CNC(C)(C)Cc1ccccc1	i	nt

One compound at a time (already shown). Order of values: TsaE inh, Bst PK mod
`c1cc(C2N3CCCN2CC3)ccn1` (stereo not drawn) in the list: i, nt
`COC(=O)COc1cc(C)cc2oc(=O)c3c(c12)CCCC3` in the list: i, >57
`Cc1cc2c(s1)NC(=O)CN=C2c1cccs1` in the list: i, >57

Continuation.
smiles	TsaE inh	Bst PK mod
CCOC(=O)c1c(N)n(Cc2ccccc2)c2nc3ccccc3nc12	i	>57
NCC1(c2ccc3c(c2)OCCO3)CCCC1	nt	>26
CCOC(=O)C1SC2(C(F)F)CC1(O)c1c(c(OC)c3occc3c1OC)O2 (stereo not drawn)	i	>57
Cc1ccc(NC(=O)CSc2nnc([C@@H](N)Cc3c[nH]c4ccccc34)o2)c(C)c1	i	>57
c1ccc2c(c1)Nc1ccccc1S2	i	nt
CCN(CC)c1ccc(N=Cc2c(O)n(-c3ccccc3C)c(=O)[nH]c2=O)cc1	nt	>26
CCCCn1c(O)c(C(C)=Nc2c(C)n(C)n(-c3ccccc3)c2=O)c(=O)[nH]c1=O	i	>57
C[C@]12CC[C@H](O)CC1=CC[C@@H]1[C@H]2CC[C@]2(C)C(=O)CC[C@H]12	i	nt
COc1ccc(Br)cc1CN1CCN(CCO)CC1	i	nt
COc1ccc(CN2C(=O)CC(=O)NC2=O)cc1	i	>57
Nc1ccncc1	i	nt
CC1(C)[C@@H]2CC[C@]1(C)CN(CCC[N+](C)(C)C)C2	i	nt
CC[C@H]1CN2CCc3cc(OC)c(OC)cc3[C@H]2C[C@@H]1C[C@H]1NCCc2c1[nH]c1ccc(O)cc21	i	nt
COCCOC(=O)c1c(N)n(Cc2ccccc2)c2nc3ccccc3nc12	i	>57
Cc1cc([P+](=O)O)c(C)n1-c1ccc(Br)cc1	i	>57
O=c1c2ccccc2nc(N2CCCC2)n1-c1ccc(Cl)cc1	i	>57
O=C1C2CCCN2C(c2ccccc2)N1c1ccccn1 (stereo not drawn)	i	>57
O=C1NC(=O)C2(Cc3ccccc3N3CCCC32)C(=O)N1c1ccccc1 (stereo not drawn)	i	>57
COc1ccc(-n2c(O)c(C(C)=NC3CC3)c(=O)[nH]c2=O)cc1	i	>57
c1ccc(OCC2CO2)cc1 (stereo not drawn)	i	nt
NCCP(=O)(O)O	i	nt
C(=NC12CN3CN(CN(C3)C1)C2)c1cccnc1	i	>57
N#CCCN	i	nt
CCc1c(C(=O)OC)ncc2[nH]c3cc(OC)c(OC)cc3c12	i	nt
Nc1c(Cl)c(Cl)nc(C(=O)O)c1Cl	i	nt
O=P(OCCCl)(OCCCl)OCCCl	i	nt
O=c1[nH]c(=O)n(CCc2ccccc2)c(O)c1C=NCCCn1ccnc1	nt	>26
O=C(O)C1CN2CCC1CC2 (stereo not drawn)	i	nt
CCC(=NCCC1=CCCCC1)c1c(O)[nH]c(=O)[nH]c1=O	i	>57
O=C(COc1ccccc1)N1CCN(C/C=C/c2ccccc2)CC1	i	>57
CC1CN=C(NCc2ccncc2)S1 (stereo not drawn)	i	>57
CN(C)C(=O)Nc1cccc(OC(=O)N(C)C)c1	i	>57
Oc1cccc(Cl)c1	i	nt
CC(=NCc1ccco1)c1c(O)n(C)c(=O)n(C)c1=O	i	>57
O=S(=O)(c1ccc(Cl)cc1)N1CN2CCN(C2)C1	i	>57
C[C@H]1CC[C@@H]2[C@@H](C)C(=O)O[C@H]3O[C@@]4(C)CC[C@@H]1[C@]32OO4	i	nt
CCC(=NCc1ccco1)c1c(O)n(Cc2ccccc2)c(=O)[nH]c1=O	i	>57
CCCN(CCC)c1c([N+](=O)[O-])cc(C(F)(F)F)cc1[N+](=O)[O-]	i	nt
COc1ccc(N2CCN(C(CNC(=O)Oc3ccccc3)c3cccnc3)CC2)cc1 (stereo not drawn)	i	>57
CCCCCn1c(=O)c(C(=O)NCc2ccncc2)c(O)c2ccccc21	i	>57
CCCCCCN=C(CC)c1c(O)n(CCCC)c(=O)[nH]c1=O	i	>57
COCCn1cc(C(=O)N2CCC3(CC2)OCCO3)c2c3ccccc3n(C)c2c1=O	i	>57
CCOC(=O)CBr	i	nt
C#CCN1C(=O)C2(C(C#N)=C(N)OC(C)=C2C(=O)OCc2ccccc2)c2ccccc21 (stereo not drawn)	i	>57
C#CCN1C(C)=C(C(=O)CCO)[C@@H](c2cccc(-n3oo3)c2)C(C(=O)OC)=C1C	i	nt

Sorted by SMILES length (rising): 7 of the compounds above
smiles	TsaE inh	Bst PK mod
ClC(Cl)(Cl)c1ccccc1	i	nt
c1ccc2c(c1)Nc1ccccc1S2	i	nt
Nc1c(Cl)c(Cl)nc(C(=O)O)c1Cl	i	nt
COc1ccc(N2CCN(C(CNC(=O)Oc3ccccc3)c3cccnc3)CC2)cc1 (stereo not drawn)	i	>57
COC(=O)[C@H]1C(=O)[C@H](C(=O)OC)[C@@H]2CC[C@H]1N2C	i	nt
C#CCN1C(C)=C(C(=O)CCO)[C@@H](c2cccc(-n3oo3)c2)C(C(=O)OC)=C1C	i	nt
CNc1ccc2oc(C[C@@H]3O[C@@]4(CC[C@H]3C)O[C@@H]([C@@H](C)C(=O)c3ccc[nH]3)[C@@H](C)C[C@H]4C)nc2c1C(=O)O	i	nt

Other compounds:
smiles	TsaE inh	Bst PK mod
O=C(O)C1(c2ccc(Cl)cc2)CCC1	i	>57
CN(C)C(=O)CSc1nnc([C@@H](N)Cc2ccccc2)o1	i	>57
CCCn1ncc(C(=O)O)c1C	i	>57
CC(=O)OCC1=C(C(=O)[O-])N2C(=O)[C@@H](NC(=O)CCC[C@@H](N)C(=O)[O-])[C@@H]2SC1.[Zn+2]	?	nt
CC1(O)C[C@]2(C)N(O)C3CCCC[C@@H]3N2O1 (stereo partly drawn)	i	>57
Cc1ccc2c(c1)CC1(CN2C)C(=O)NC(=O)N(c2ccccc2C)C1=O (stereo not drawn)	i	>57
O=C(O)C(C(=O)O)P(=S)(S)c1ccccc1 (stereo not drawn)	i	nt
N#Cc1cccc(NC(=O)N2CC3(CCN(C(=O)Oc4ccccc4)CC3)C2)c1	i	nt
N#Cc1cccc(NC(=O)N2CC[C@@]3(CCCN(C(=O)Oc4ccccc4)C3)C2)c1	i	nt
Cc1nc2cc(C(=O)N3CCC4(CC3)OCCO4)ccc2n1-c1cccc(F)c1	i	>57
CCOP(=S)(OCC)SCCSCC	i	nt
O=C(c1ccccc1)[C@H]1[C@H](c2ccccc2[N+](=O)[O-])N1C1CCCCC1 (stereo partly drawn)	i	nt
CC[C@H]1CN2CC[C@@H]1C[C@@H]2[C@H](O)c1ccnc2ccccc12	i	nt
Cc1cc(O)ccc1Cl	i	nt
CN1[C@@H]2CC[C@H]1CC(OC1c3ccccc3CCc3ccccc31)C2 (stereo partly drawn)	i	nt
C[C@@H](C(=O)OC1C[C@H]2CC[C@@H](C1)N2C)c1ccc(Br)cc1 (stereo partly drawn)	i	nt
